Calb FLC: affects C. albicans growth with fluconazole; 300,000 tested, 0.57% active; C. albicans CaCi-2 (fluconazole-resistant clinical isolate) + fluconazole, Alamar Blue growth, 48 h; AID 1979; growth inhibition, % (test concentration not listed);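 active means most replicates above 75%; inconclusive means exactly half above 75%; inactive means most below 75%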;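 further: all wells also contain fluconazole at 8 µg/ml as a sub-toxic cotreatment; 0% = median of DMSO wells and 100% = median of geldanamycin control wells; wells of about 8 µL received 7.5 nL stock; the first replicate is given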
RanGTP-Impb inh: disruptors of Ran-importin-beta complex formation – biochemical, FRET, CFP-Ran, YFP-importin-beta, homogeneous, primary screen | cell-free CFP-Ran/YFP-importin-beta FRET ratio | inhibition, % (no concentration beside the values) | 300,000 tested, 1.1% active | AID 2216;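 active means most replicates above 15%; inconclusive means exactly half above 15%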;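 further: 0% = DMSO wells and 100% = Ran loaded with GDP instead of GTP; wells of about 40 µL received 100 nL stock; the first replicate is given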
LANA-H2A inh: blocks KSHV LANA binding to histone H2A/H2B | Q9QR71 | cell-free LANA-H2A/H2B peptide, fluorescence polarization | inhibition, % (concentration not given with the values) | 320,000 tested, 0.6% active | AID 2629; in the data active means inhibition mostly above about 10%, no sharp cut-off; inactive means mostly below about 6.7%;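 further: stock transfer was 7.5 nL into about 10 µL; 0% = median of vehicle wells and 100% = median of positive control wells; one replicate is shown; the record names a cut of 25% in any replicate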
HNF4A DNA FP: change in binding of human HNF4 alpha to DNA. HNF4a-FITC DNA binding, fluorescence polarization, 1 h. activity change, % at 10 µM. 360,000 tested, 0.3% active. P41235; in the data active means activity change above about 30%, passing the limit was not always enough;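 further: controls were the assay level and a saturating level of protein; the project sought stronger binding though the title names inhibitors; some compounds called inactive have numbers as strong as hits; positive values seem to mean higher polarization but the record does not say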
Target sequence (P41235 whole entry, looked up): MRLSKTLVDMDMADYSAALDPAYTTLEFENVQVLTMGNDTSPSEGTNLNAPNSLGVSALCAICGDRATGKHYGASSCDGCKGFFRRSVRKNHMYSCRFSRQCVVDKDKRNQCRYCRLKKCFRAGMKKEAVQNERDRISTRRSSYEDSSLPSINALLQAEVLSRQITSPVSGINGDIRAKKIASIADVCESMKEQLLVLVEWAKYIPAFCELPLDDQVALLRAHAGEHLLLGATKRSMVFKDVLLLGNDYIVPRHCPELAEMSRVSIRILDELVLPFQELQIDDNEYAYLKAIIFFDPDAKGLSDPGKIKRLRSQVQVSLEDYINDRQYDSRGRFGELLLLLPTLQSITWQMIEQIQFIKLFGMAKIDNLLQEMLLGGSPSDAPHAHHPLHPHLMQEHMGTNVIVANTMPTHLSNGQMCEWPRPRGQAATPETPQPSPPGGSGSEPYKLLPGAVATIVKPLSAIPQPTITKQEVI
ALR inh: blocks human ALR sulfhydryl oxidase activity; P55789; purified ALR, DTT oxidation, H2O2 HRP-luminol luminescence; inhibition, % (concentration not given with the values); 290,000 tested, 3.8% active; AID 485317;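 active means mean and each replicate at 75% or more; inconclusive means only one of the two met; inactive means neither met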;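 further: stock transfer was 7.5 nL into about 7.5 µL; 0% = neutral wells and 100% = wells with inactivated enzyme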
Target sequence (P55789 whole entry, looked up): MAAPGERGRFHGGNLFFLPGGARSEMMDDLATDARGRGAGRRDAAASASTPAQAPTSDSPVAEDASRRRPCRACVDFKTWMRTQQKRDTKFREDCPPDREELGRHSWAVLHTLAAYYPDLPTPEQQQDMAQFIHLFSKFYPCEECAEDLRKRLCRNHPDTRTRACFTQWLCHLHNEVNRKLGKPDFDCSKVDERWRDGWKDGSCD
B2AR ag: agonists of human beta-2 adrenergic receptor inducing internalization; P07550; Am2.2-beta2AR cells, FAP receptor internalization, flow cytometry; reference of the scale not given here; response, % (concentration not given with the values); 340,000 tested, 0.43% active;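 active means response above a set limit, near 3 SD of response in nonfluorescent compounds, cut at about 42% in these data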;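 further: stock transfer was 100 nL into about 11 µL; a reference agonist was the positive control; negative values mostly stem from fluorescent compounds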
Target sequence (P07550 whole entry, looked up): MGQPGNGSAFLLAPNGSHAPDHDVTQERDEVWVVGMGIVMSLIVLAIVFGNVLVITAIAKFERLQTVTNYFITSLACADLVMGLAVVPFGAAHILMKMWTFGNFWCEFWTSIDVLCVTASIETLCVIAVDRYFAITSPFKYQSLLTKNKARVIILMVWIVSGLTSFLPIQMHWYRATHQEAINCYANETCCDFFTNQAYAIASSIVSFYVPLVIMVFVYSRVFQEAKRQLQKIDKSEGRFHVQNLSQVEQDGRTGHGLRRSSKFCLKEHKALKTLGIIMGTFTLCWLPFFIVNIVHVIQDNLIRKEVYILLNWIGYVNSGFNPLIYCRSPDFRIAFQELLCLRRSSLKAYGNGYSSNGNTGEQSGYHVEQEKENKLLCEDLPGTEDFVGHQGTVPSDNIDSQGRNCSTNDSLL
Vif TR-FRET: inhibitors of Vif binding to APOBEC3G peptide, primary screen, biochemical, TR-FRET, GST-Vif 1-94, biotin-A3G peptide, dose response retest (AID 1117319) | TR-FRET GST-Vif / biotin-A3G peptide binding; higher % means a stronger effect; test concentration not given here; strong numbers were not always called active | inhibition, %, or IC50 in µM where a hit was titrated | 260,000 tested, 0.57% active;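 active means above the screen mean plus three standard deviations and confirmed in dose response; inconclusive means results disagree or hit not tested in dose response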;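 further: Vif residues 1-94 fused to GST binding biotinylated APOBEC3G peptide 110-148; 0% = full assay without inhibitor and 100% = GST in place of GST-Vif; retest series ran down from 100 µM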
Numbers without * were called inactive; ? = inconclusive; . = not tested or not shown; & = joins results of further samples.

SMILES	Calb FLC	RanGTP-Impb inh	LANA-H2A inh	HNF4A DNA FP	ALR inh	B2AR ag	Vif TR-FRET
CN1CCc2c(sc3c2c(=O)n(-c2ccccc2)c2nnc(SCc4ccccc4)n32)C1	7	-0.4	-2.8	3.5	-3	-17	14%
O=S(=O)(NCC(Nc1ccc(Cl)cc1)c1ccccc1)c1ccc(Cl)cc1 (centres undefined)	-16	-2.3	-1.9	-1.4	7	22	.
CCOC(=O)C1=C(COC(=O)C(CC)Oc2ccccc2)NC(=O)NC1C (centres undefined)	-5	2.4	-2.6	-1.2	-1	3	24%
COCC(C)NC(=O)NC1(C(F)(F)F)Oc2ccc(Cl)cc2O1 (centres undefined)	-26	0.1	2.0	-1.8	-5	7	10%
c1ccc(-c2csc(Cc3nnc4n3CCCCC4)n2)cc1	-17	-0.6	-1.9	2.3	-4	7	0%
Cc1cc(C(=O)Nc2nnc(-c3ccccc3)s2)no1	-2	4.8	2.2	0.5	93*	5	13%
CSc1ccc(/C=C(/NC(=O)c2ccccc2)C(=O)N2CCN(C)CC2)cc1	33	?	0.5	-1.5	-3	-10	-4%
O=C(Nc1ccc(F)cc1)C(=O)c1cn(CC(=O)N2CCOCC2)c2ccccc12	-5	-0.2	-1.2	0.5	2	2	-3%
COc1cc(CC(=O)Nc2cccc(SC)c2)cc(OC)c1OC	-18	?	7.1	-4.3	-11	4	2%
Cc1cccc(Oc2nc3ccccn3c(=O)c2/C=C(\C#N)C(=O)NC2CCS(=O)(=O)C2)c1C (centres undefined)	-6	12	3.7	-1.6	.	-9	.
COc1ccc(/C=N/n2cncn2)cc1Cn1nc(C)c([N+](=O)[O-])c1C	-2	-0.4	-2.5	4.0	-13	-1	11%
CCN(Cc1ccccc1)S(=O)(=O)c1cc(C(=O)NCCCN(C)C)ccc1OC	30	-0.2	0.5	1.3	-2	-7	10%
Cc1c(Cc2ccccc2)c(=O)n2c([nH]c3ccccc32)c1C#N	29	8.6	4.3	5.6	22	-9	-12%
O=C(CS(=O)CC(=O)Nc1ccc(Cl)cc1)NCC1OCCc2ccccc21 (centres undefined)	13	-0.6	.	-0.6	.	1	3%
Cc1ccc2c(c1)N(CC(=O)N1CCCCC1)C(=O)CO2	28	5.3	0.9	-1.2	2	-6	5%
O=C(CN1C(=O)c2ccccc2C1=O)N1CCN(C2c3ccccc3-c3ccccc32)CC1	1	-1.1	.	1.2	.	3	.
CC(C)OCCCNC(=O)c1cc(-c2cccnc2)nc2ccccc12	13	-0.9	5.0	1.7	-8	11	8%
COc1ccc(OCCCC(=O)Nc2ccc(N3CCCCC3)cc2)cc1	2	-0.2	1.7	0.2	17	-3	9%
Cc1cc(C)c(C)c(S(=O)(=O)NC(C)C(=O)O)c1C (centres undefined)	-6	2.5	-0.9	2.8	-5	3	.
Cc1ccc(Nc2nc(-c3sc(NC(=O)c4ccccc4)nc3C)cs2)cc1	-5	-0.8	-4.0	15	.	10	3%
O=S(=O)(Nc1nc2ccccc2nc1Cl)c1ccc(F)cc1	23	2.7	-1.0	0.5	-7	-4	6%
Clc1ccc(OCCN2CCOCC2)cc1Cl	.	1.0	17*	2.0	-2	2	3%
COc1ccccc1C(=O)N1CCCC1(C#N)c1ccccc1 (centres undefined)	.	6.7	-4.4	-0.8	-5	1	-5%
O=C(NCc1ccc2c(c1)OCO2)C1Cc2ccccc2CN1C(=O)c1ccco1 (centres undefined)	-52	-0.2	1.5	6.5	2	-2	-6%
COc1ccc(NC(=O)C(CCSC)NC(N)=O)cc1Cl (centres undefined)	-3	8.8	-1.7	2.2	-1	2	-6%
Oc1ccc(/C=N/N(c2ccccc2)c2ccccc2)c(O)c1O	113*	-0.1	0.4	-0.7	.	6	.
CCOc1ccc(NC(=O)Nc2ccc3c(c2)nc(C)n3C)cc1	4	0.9	0.5	1.1	-5	-5	-3%
CCOc1ccc(C(C)(C)C)cc1S(=O)(=O)N1CC(C)OC(C)C1 (centres undefined)	-14	1.9	3.9	-0.1	1	20	-6%
CC(=O)NCCOc1ccc2oc3ccccc3c2c1	3	-3.3	-1.9	-5.9	6	0	-3%
NC(=O)CSc1ccc(F)cc1	14	-1.7	-1.4	-4.2	-11	7	3%
O=C(CSc1nnnn1-c1ccc2c(c1)CCC2)NCc1cccs1	17	2.1	-2.5	0.3	-12	-6	-2%
CC(C)Oc1ccc(C(=O)Nc2ccc(S(=O)(=O)N3CCN(C)CC3)cc2)cc1	0	5.2	-3.4	3.0	1	-5	.
Cc1cc(Cl)ccc1OCC(O)CNCCc1ccc(S(N)(=O)=O)cc1 (centres undefined)	-1	-0.8	-2.5	2.0	-24	8	-5%
COc1ccc(C(=O)Nc2ccc(C(F)(F)F)n(C)c2=O)cc1	12	1.4	3.3	3.1	0	-3	-44%
O=C(N/N=C1\C2CN3CCN(C2)CC1(c1ccccc1)C3)c1ccc(F)cc1	3	5.2	1.0	-0.1	-2	-1	-9%
CN(Cc1cnccn1)C(=O)CC1C(=O)NCCN1Cc1c(F)cccc1Cl (centres undefined)	-4	4.5	2.5	-3.3	1	-1	6%
CCCOc1ccc(NC(=O)CC2C(=O)OCC3CCCCN32)cc1 (centres undefined)	.	.	-2.1	-3.9	-4	-3	0%
Cc1ccccc1Cn1nnc(-c2ccc3c(c2)OCO3)n1	-8	-2.1	0.4	-0.6	1	-5	.
Cc1ccc(-c2oc3ccccc3c(=O)c2O)cc1	-14	22*	2.9	1.7	-10	-2	31%
COc1ccc2[nH]c3c(c2c1)CCN1C(=O)C(CC(=O)NC(C)(C)C)C[C@H](C(=O)N2CCOCC2)[C@@]31CCC1CCCC1 (some centres undefined)	.	.	.	2.6	.	7	1%
COc1ccc(OCC(=O)Nc2ccc(N3CCCCC3)cc2)cc1	12	6.8	-1.6	0.9	0	11	8%
O=C(CCN1C(=O)c2ccccc2C1=O)NCc1ccccc1	-4	1.3	2.5	-3.6	-3	3	.
CCOP(=O)(c1ccc(N(C)C)cc1)C(O)c1cccnc1 (centres undefined)	0	-0.3	-1.7	4.4	.	-3	-3%
O=C(COc1ccc(Cl)cc1Cl)NNC(=S)NC(=O)c1ccco1	66	6.2	-7.4	-0.2	.	-5	.
O=C(c1ccc(S(=O)(=O)N2CCCCC2)cc1)N1CCN(Cc2ccc3c(c2)OCO3)CC1	2	3.0	.	0.3	.	2	-4%
CCc1cc(=O)oc2cc(C)cc(OCC(=O)NC3CC3)c12	6	1.8	-1.1	-4.7	-19	-5	5%
Cc1cc2nc(C3CCN(Cc4nnnn4Cc4cccs4)CC3)[nH]c2cc1C	10	-3.5	-2.4	0.1	20	-3	1%
C=CC[C@@H](CC(=O)NCCO)C(=O)N[C@@H](COC(=O)[C@@H](CC=C)CC(=O)OC(C)(C)C)Cc1ccccc1	.	.	-5.0	-2.3	9	4	.
Cc1cc(C)c(/C=N/NC(=O)c2nnn(-c3nonc3N)c2CN2CCC(C)CC2)c(C)c1	1	11	1.8	0.3	0	-2	.
Cc1cc(C)cc(-n2ncc3c2CCCC3NC(=O)CCN2Cc3ccccc3C2=O)c1 (centres undefined)	-16	-4.8	-17	4.3	-14	-6	-7%
CC1CC(C)CN(C(=O)c2ccncc2)C1 (centres undefined)	-10	-2.2	3.3	-1.2	-5	2	-7%
Cn1c(=O)c2nc(NCc3ccccc3)sc2n(C)c1=O	.	.	.	-3.6	.	-5	-1%
COC(=O)Nc1ccc(S(=O)(=O)Nc2cc(OC)nc(OC)n2)cc1	-7	-0.1	5.7	2.9	-5	-9	.
Cc1ccc(C(=O)Sc2cccccc2=O)cc1	-3	3.7	4.0	-6.9	99*	16	18%
O=C(CCl)N1N=C(c2ccco2)CC1c1ccco1 (centres undefined)	-9	2.8	-1.7	-14	38	2	60%
COc1ccc(NC(=O)CCNC(=O)Cn2cnc3sc4c(c3c2=O)CCCC4)c(OC)c1	12	4.7	1.6	0.0	.	-11	.
CCCCOC(=O)c1ccc(NC(=O)C(=O)NCc2ccncc2)cc1	-9	-0.3	1.6	-3.0	-2	3	5%
Cc1nc2ccccc2nc1N1CCOCC1	1	2.6	-1.5	-2.4	-7	-5	-2%
COc1ccccc1CNC1CCN(Cc2ccccc2)CC1	-7	2.6	6.7	-0.8	-4	4	-6%
OC(COCc1ccc2c(c1)OCO2)CN1CCN(Cc2ccccc2)CC1 (centres undefined)	-5	3.9	-0.9	-0.2	0	-4	3%&3%

(further entries)
SMILES	Calb FLC	RanGTP-Impb inh	LANA-H2A inh	HNF4A DNA FP	ALR inh	B2AR ag	Vif TR-FRET
CCOc1ccc2[nH]c3c(NCCN(C)C)ncnc3c2c1	2	-1.8	1.0	-2.5	-3	-2	-7%
c1ccc(CN2c3ccccc3-c3nc4ccccc4n3C2c2ccccn2)cc1 (centres undefined)	6	0.4	-2.2	1.5	-17	8	-1%
COc1cccc(-n2c(SCC(=O)N3CCCCC3)nc3c([nH]c4ccccc43)c2=O)c1	-2	1.4	-1.5	0.6	1	-3	1%
Cc1ccccc1C(=O)c1cn[nH]c1-c1ccccc1O	9	-0.2	0.3	4.2	15	-4	-8%
COc1ccc(C(=O)N2CCN(C)C(C)C2)cc1OC1CCN(C(C)=O)CC1 (centres undefined)	0	-1.4	2.1	-0.4	-11	-9	0%
CCNC(=O)N1CCOCC1	3	-3.7	1.1	5.3	-11	-7	-1%
COc1cccc(-c2nc(CS(=O)(=O)CC(=O)N3CCOCC3)c(C)o2)c1	2	-0.6	-4.0	-2.0	21	0	.
CCCN(CC(=O)Nc1ccccc1C)C(=O)c1ccc(N2CCCC2)c([N+](=O)[O-])c1	5	-8.9	1.1	3.0	1	-12	-9%
Cc1ccc(C)c(NS(=O)(=O)c2ccc3oc(=O)ccc3c2)c1	44	-2.1	0.1	4.9	-2	-9	.
Clc1ccc(N=c2ssnc2Cl)cc1	-3	-1.8	5.6	-2.4	36	1	?
O=C(/C=C/Nc1ccc(Br)cc1F)c1ccco1	-9	-2.0	3.5	3.3	-5	-13	17%
Cc1nc(CSc2ccccc2)cc(=O)[nH]1	7	1.2	3.6	1.1	-6	-1	.
O=C(Nc1ccc(Cl)cc1)Nc1ccccc1CC[N+](=O)[O-]	-9	-0.7	2.4	-2.2	0	13	1%
O=C(Nc1ccc(-c2nc3ccccc3o2)cc1)c1ccc(N2CCOCC2)c([N+](=O)[O-])c1	1	-0.8	1.4	-1.5	0	14	1%
Cc1ccn2c(C(=O)CSc3ccc(Cl)cc3Cl)c(C)nc2c1	-5	-0.7	3.9	-4.1	32	1	29%
O=C(NCCc1ccc(F)cc1)c1cc(-c2ccncc2)nc2ccccc12	7	4.9	.	.	.	.	-7%
COc1cc(C(=O)O/N=C2/C=C(C)C(=O)C=C2C)cc(OC)c1OC	.	.	1.7	-6.1	26	-2	5%
O=C(CSc1nnc2ccccn12)NCc1ccco1	-19	2.9	6.8	2.0	-2	4	22%
Cc1cc(/C=N/NC(=O)C(O)(c2ccccc2)c2ccccc2)c(C)n1-c1ccc(C(=O)O)cc1	-3	-0.1	-5.3	0.5	5	-3	?
CC(=O)Nc1cc2c(cc1Cl)Cc1cc(Cl)ccc1-2	.	.	.	-0.4	.	2	11%
COc1cccc(N2CCN(c3ccc([N+](=O)[O-])cn3)CC2)c1	-1	0.8	0.4	-1.9	.	-8	0%

Ordered by molecular weight (highest first): part of the list above.
SMILES	Calb FLC	RanGTP-Impb inh	LANA-H2A inh	HNF4A DNA FP	ALR inh	B2AR ag	Vif TR-FRET
O=C(NCCc1ccc(F)cc1)c1cc(-c2ccncc2)nc2ccccc12	7	4.9	.	.	.	.	-7%
COc1ccc(OCC(=O)Nc2ccc(N3CCCCC3)cc2)cc1	12	6.8	-1.6	0.9	0	11	8%
c1ccc(-c2csc(Cc3nnc4n3CCCCC4)n2)cc1	-17	-0.6	-1.9	2.3	-4	7	0%
